Compound activity: PubChem BioAssay, National Center for Advancing Translational Sciences (NCATS)
Menin MLL FP FL: displaces fluorescein MLL peptide from human menin; Fluorescence polarization, fluorescein-MLL peptide displacement from menin; FP activity change, % at 61.4 µM; 290,000 tested, under 10 active; AID 1766; inconclusive = falling polarisation curve, or a change in total fluorescence; inactive = total fluorescence flat and polarisation flat or rising; no compound was filed as active; the % refers to the polarisation; negative = inhibition;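 note: % of control where 0% means no effect; inhibitors lower the polarisation; unlabelled MLL peptide was the positive control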
gsp agonist: gsp mutant agonism | gsp mutant cells, cAMP HTRF, 30 min; control for the full effect not named in the record | 340,000 tested, 0.13% active | AID 624287 | Potency, µM (titrated, usually from 76.9 µM), inactives show at the top dose activation (cAMP increase), usual class: activators; active = well fitted activation curve with a large enough effect; inconclusive = small, poorly fitted or top-dose-only effect, or another doubt; inactive = no such curve, though single readings can be large or run the other way; cell line not stated here;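 note: phosphodiesterase inhibitor Ro 20-1724 added with compounds to block cAMP breakdown; potency is the fitted concentration of half-maximal effect; nearly all actives have a fitted effect of over 60% in size; about a fifth of the inactives were tested at one dose only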
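Cells stably selected in G418 were plated at 2000/well, grown 16-24 hr, then given compounds in DMSO with the PDE inhibitor […] (300 uM solution added) for 30 min at 37C; cAMP was read by HTRF.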
TRPML1 agonist: agonists of human TRPML1 channel; Q9GZU1; 410,000 tested, 0.12% active; activation, % (test concentration not listed); TRPML1-expressing cells, Ca2+ dye fluorescence, FDSS; host cell line not named in the record; reference of the full effect not given here; in the data active = activation above about 50%; inconclusive = about 30% to 50%; inactive = below about 30%; note: 0% is about no effect; the text of the record puts the active cut at 80%
Target sequence (Q9GZU1 whole entry, looked up): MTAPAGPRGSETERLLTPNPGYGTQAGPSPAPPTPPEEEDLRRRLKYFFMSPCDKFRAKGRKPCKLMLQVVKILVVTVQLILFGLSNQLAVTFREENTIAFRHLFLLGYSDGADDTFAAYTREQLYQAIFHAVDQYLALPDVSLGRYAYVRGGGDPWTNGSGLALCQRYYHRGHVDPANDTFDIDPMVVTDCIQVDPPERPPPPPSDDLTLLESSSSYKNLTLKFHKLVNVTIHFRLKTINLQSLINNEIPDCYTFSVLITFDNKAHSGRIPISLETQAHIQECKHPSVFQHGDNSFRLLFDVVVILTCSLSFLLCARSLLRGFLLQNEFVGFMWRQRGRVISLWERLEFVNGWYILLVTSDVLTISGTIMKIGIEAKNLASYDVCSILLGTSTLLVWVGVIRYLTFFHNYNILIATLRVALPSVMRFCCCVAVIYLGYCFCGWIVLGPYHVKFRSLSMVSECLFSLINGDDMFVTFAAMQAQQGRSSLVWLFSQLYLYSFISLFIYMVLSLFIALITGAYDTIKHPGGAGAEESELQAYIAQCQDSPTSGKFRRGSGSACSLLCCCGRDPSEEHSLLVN
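Kinetic FDSS Ca2+ read in Tet-induced TRPML1-DL cells (ABD Ca8 dye plus quencher, 45-90 min RT loading): baseline, then compound, then 110 s agonist window; EC80 agonist 54-4 at 4uM final added afterwards for a 110 s antagonist window.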
TRPML1 inh: blocks the human TRPML1 channel; Q9GZU1; TRPML1-inducible cells, Ca2+ dye fluorescence, FDSS; hits give low values; inhibition of EC80 agonist-evoked calcium signal; activity change, negative = inhibition, % (no concentration beside the values); 390,000 tested, 0.02% active; in the data active means activity change below about -50%; inconclusive means about -30% to -50%; inactive means above about -30%;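 note: stimulus is agonist 54-4 at its EC80 concentration; % is set by controls: 0 for no effect and ±100 for the full control effect; compound concentration not given in the record; the text of the record puts the active cut at -80%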
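TRPML1-DL cells, Tet-induced overnight (~16 h, 37 °C) at 1,500 cells/well, were loaded with Ca8 no-wash dye plus quencher for 45-90 min at room temperature. Compounds were pinned during FDSS kinetic reading; agonist 54-4 at EC80 (4 uM final) then added.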
ClpP mod: qHTS Assay for Activators of ClpP | 340,000 tested, 1.9% active | Potency, µM (top dose mostly 57.5 µM), for inactives: at the top dose activity change, negative = active | purified B. subtilis ClpP, FRET peptide cleavage, 20 min | ATP-dependent Clp protease proteolytic subunit (Bacillus subtilis (strain 168)), P80244; active = well fitted falling curve with a large enough effect; inconclusive = small, poorly fitted or top-dose-only effect; inactive = no such curve, though single readings can be large or run the other way; note: potency is the fitted concentration of half-maximal effect; the source files actives as falling curves though it sought activators and does not explain the sign; nearly all actives have a fitted effect of over 65% in size; many hits overshoot -100%
Target sequence (P80244 whole entry, looked up): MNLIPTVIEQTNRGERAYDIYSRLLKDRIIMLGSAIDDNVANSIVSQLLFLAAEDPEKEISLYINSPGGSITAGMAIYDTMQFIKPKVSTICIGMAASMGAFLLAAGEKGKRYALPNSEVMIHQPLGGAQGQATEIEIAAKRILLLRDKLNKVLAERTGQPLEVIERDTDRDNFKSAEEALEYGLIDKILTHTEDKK
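FRET quenching reversal measured ClpP activation: 10 microg/mL B. subtilis ClpP at pH 8 with the FRET-FV decapeptide, read at 430 nm after 320 nm excitation. The 20-min minus 0-min signal was scaled between DMSO/no-enzyme wells and ADEP (5.8 microM final).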
gsp antag: antagonizes gsp, the McCune-Albright syndrome mutation; gsp-mutant cells, cAMP HTRF, 30 min; control for the full effect not named in the record; Potency, µM (series often up to 76.9 µM), inactives show at the top dose activity change, negative = inhibition, actives largely listed as inhibitors; 340,000 tested, 0.4% active; active = falling curve of any shape with a large fitted effect; inconclusive = falling curve, mostly with a smaller effect; inactive = flat or rising curve; cell line not stated here;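 note: intracellular cAMP measured with PDE inhibitor Ro 20-1724 present during compound exposure; potency is the fitted concentration of half-maximal effect; % is set by controls: 0 for no effect and ±100 for the full control effect; nearly all actives have a fitted effect of over 65% in size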
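Cells, 2000/well, grown 16–24 h in DMEM 10% FBS with 0.5 mg/ml G418, then compounds plus […] (300 uM addition stock), 30 min at 37C. cAMP read by HTRF (cAMP-d2 and anti-cAMP antibody-K in lysis buffer) after 30 min RT.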
The depositor's hits bear a star; ? = inconclusive; . = no result given; & = joins results of further samples; [ ] = remark or other dose.

SMILES | Menin MLL FP FL | gsp agonist | TRPML1 agonist | TRPML1 inh | ClpP mod | gsp antag
Cc1c(Cl)cccc1NC(=S)NCCN1CCOCC1 | 1.4 | 24.0% | -0.7 | -0.2 | -19.3% | 3.6%
COc1ccccc1C(=O)Nc1c(C(=O)NC(C)(C)C)oc2ccccc12 | . | . | 0.6 | -3.5 | 33.2% | .
COc1ccc(CNC(=O)COC(=O)CNC(=O)c2sc3ccccc3c2Cl)cc1OC | . | ? | 0.7 | 0.1 | 2.7% | -0.1%
CCOc1cc(C(=S)N2CCCC2)ccc1OC(=O)Cc1ccc(F)cc1 | -4.8 | -15.1% | 1.0 | 14.6 | -0.5% | -7.2%
COc1ccc([N+](=O)[O-])cc1NC(=O)CCN1CCN(C)CC1 | -6.7 | 2.6%[15.4 µM] | 1.3 | 34.1 | . | -22.1%
CCc1ccccc1NC(=O)CSc1nc2ncccc2o1 | . | . | -0.8 | 9.0 | 2.8% | .
COc1cc(C)ccc1OCCOc1c(Cl)cc(Cl)cc1Cl | 0.9 | -1.8% | 3.4 | -3.7 | -0.7% | 2.1%
CC(C)CNC(=O)c1ccccc1-c1ccccc1C(=O)O | -2.5 | -3.4% | 0.4 | 13.9 | -0.3% | 10.0%
Cc1nc2sccn2c1P(c1c(C)nc2sccn12)c1c(C)nc2sccn12 | 3.0 | -27.4% | -0.2 | -11.9 | 3.1% | -2.0%
COc1ccc(Cn2c(=O)c3oc4ccccc4c3n(Cc3ccc(F)cc3)c2=O)cc1 | . | . | 1.7 | 7.1 | 0.9% | .
CCn1cc(C(=O)OCC(=O)c2ccccc2)c(=O)c2ccc(C)nc21 | -1.0 | 4.6%[15.4 µM] | 2.3 | 9.6 | . | -2.3%
CCc1cccc(CC)c1NC1=NS(=O)(=O)c2ccccc21 | . | . | -1.0 | -12.8 | 1.5% | .
O=C(COC(=O)C1CC2C=CC1C2)NCc1ccco1 (configuration not stated) | 3.9 | -25.6% | -0.7 | 7.5 | 2.2% | 1.4%
COc1ccccc1NC(=S)N1CCC(NC(=O)NC23CC4CC(CC(C4)C2)C3)CC1 | 10.9 | 5.4% | -0.2 | -5.5 | -1.9% | -7.7%
COc1ccccc1CCNC(=O)c1cccc(S(=O)(=O)N2CCc3ccccc3C2)c1 | . | -34.2%[inhibitor] | 1.7 | 2.1 | -4.4% | -9.1%
Cc1cccc(-n2c(=O)c3ccccc3n(Cc3ccc(F)cc3)c2=O)c1 | . | . | 2.5 | 29.7 | -24.5% | .
Cc1ccc(C)c(S(=O)(=O)N2CCN(C(=O)CN3C(=O)C4CC=CCC4C3=O)CC2)c1 (configuration not stated) | . | -45.1%[inhibitor] | -0.3 | 4.1 | 1.2% | 8.5%
COCCN(Cc1ccco1)C(=O)c1cc2c(Cl)nc3ccc(C)cc3c2s1 | . | . | -0.2 | 20.3 | -2.1% | .
Cc1ccc(S(=O)(=O)NC(=O)N2CCN(Cc3c(F)cccc3Cl)CC2)cc1 | 2.6 | 9.6%[15.4 µM] | 0.0 | -7.0 | ? | 7.8%
CC(C)NC(=S)N/N=C/c1ccccc1[N+](=O)[O-] | -2.5 | -3.6%[15.4 µM] | 1.0 | -3.3 | . | -6.4%
CCOc1ccc(NC(=O)Cn2nnc(C(=O)Nc3ccc(OCC)cc3)c2N)cc1 | . | . | -0.8 | -19.1 | -18.5% | .
Cc1ccc(C)c(S(=O)(=O)N2CCN(CC(=O)NC(=O)NCc3ccco3)CC2)c1 | ? | -18.8%[15.4 µM] | 2.2 | 1.6 | . | -0.7%
Nc1ccc(S(=O)(=O)Nc2cnc3ccccc3n2)cc1 | 4.4 | ? | -0.1 | 9.1 | 1.0%&-0.2% | 1.1%&9.9%
Cc1cccc(N2CCN(S(=O)(=O)c3c(C)[nH]c(C)c3C(=O)N3CCCCC3)CC2)c1C | 1.1 | 0.4% | -0.4 | -12.6 | 0.9% | -44.2%
COC(=O)c1ccc(C(=O)OC)c(NC(=O)COc2ccccc2OC)c1 | 3.5 | 4.0% | 1.8 | 10.7 | 1.4% | -9.2%
COc1ccc(-c2cc(C(=O)OCC(=O)c3cccc([N+](=O)[O-])c3)c3cc(C)ccc3n2)cc1 | -2.7 | -0.6%[15.4 µM] | 0.6 | -15.3 | . | 3.2%
Cc1cc(Cl)cc2sc(=S)[nH]c12 | . | -15.8% | -0.4 | 11.4 | . | ?
CCC(=O)C1=C(c2ccc(F)cc2)N(C(=O)CC)n2cnnc2S1 | . | . | -0.8 | 26.3 | -3.3% | .
CC(=O)c1cccc(NC(=O)CSc2ccc(-c3ccco3)nn2)c1 | . | -6.1% | 1.4 | 4.4 | -7.4% | -5.7%
Nc1ccc(C(=O)Nc2ccc(NC(=O)c3ccco3)c(O)c2)cc1 | 0.1 | 3.8% | -0.8 | -0.5 | 4.4% | -13.3%

Profiles, looked up by structure. Screens in order: Menin MLL FP FL | gsp agonist | TRPML1 agonist | TRPML1 inh | ClpP mod | gsp antag
CC(C)NC(=S)N/N=C/c1ccccc1[N+](=O)[O-] across the screens: -2.5 | -3.6%[15.4 µM] | 1.0 | -3.3 | . | -6.4%
COc1cc(C)ccc1OCCOc1c(Cl)cc(Cl)cc1Cl across the screens: 0.9 | -1.8% | 3.4 | -3.7 | -0.7% | 2.1%

(listing goes on)
SMILES | Menin MLL FP FL | gsp agonist | TRPML1 agonist | TRPML1 inh | ClpP mod | gsp antag
C/C(=N\OCC(=O)OCC(=O)Nc1cc(S(C)(=O)=O)ccc1Cl)c1ccc2c(c1)OCO2 | . | -28.9% | -1.6 | 5.8 | 0.0% | -1.8%
COC(=O)c1sc(S(=O)(=O)Nc2ccc(Br)cc2)c(C(=O)OC)c1C | 3.9 | ? | 2.5 | -5.8 | -2.6% | -1.1%
CCOC(=O)c1cc(CNC(=O)c2c(C)oc3c2CCCC3)c(C)o1 | 4.4 | -1.2% | 0.1 | -1.9 | -3.0% | -11.1%
CC1CN(C(=O)c2ccc(S(=O)(=O)Nc3ccccc3Cl)cc2)CC(C)O1 (configuration not stated) | -0.8 | 12.1% | 0.9 | -14.4 | 0.8% | 3.0%
COc1cccc(CNC(=O)C(=O)NCCC2CCCCN2S(=O)(=O)c2ccccc2)c1 (configuration not stated) | . | 2.0% | 0.7 | -1.0 | -5.7% | -14.8%
CN(C(=O)c1cccc(COc2ccc(Cl)cc2Cl)c1)c1ccccc1 | 3.0 | -40.0%[inhibitor] | 3.4 | -7.1 | -1.3% | -10.7%
CS(=O)(=O)N1CCC(Oc2ccccc2C(=O)N2CCCCC2CO)CC1 (configuration not stated) | 0.4 | -31.0%[inhibitor] | 1.0 | -10.0 | -0.8% | 5.9%
O=C(C/C=N\OCc1ccc([N+](=O)[O-])cc1)Nc1ccccc1 | -2.8 | -8.5%[15.4 µM] | -0.5 | -0.2 | . | -3.7%
COc1ccc(C(Nc2ccccn2)c2c(NC(=O)c3ccco3)sc(C)c2C)cc1 (configuration not stated) | 1.6 | 3.8% | 3.9 | -0.4 | -16.0% | -12.2%
COc1ccc(CC(=O)Nc2cccc(-c3nnc(-c4ccccc4)o3)c2)cc1OC | 7.8 | -3.0% | 0.1 | -3.9 | -20.2% | ?
CCc1ccc(OCC(=O)O/N=C(\N)c2ccccn2)cc1 | -1.9 | 0.2% | 1.5 | 12.4 | 1.2% | 2.7%
C=CCn1c(=O)c(C(=O)NCCc2ccccc2)c(O)c2ccccc21 | 0.7 | -30.8%[inhibitor] | 0.6 | 4.3 | -12.7% | 3.8%
Cc1ccc(Nc2c(-c3ccccc3O)nc3cnccn23)cc1 | -2.7 | -9.5%[15.4 µM] | 2.6 | 67.3 | . | ?
Cc1c(CNC2CCCCCC2)c(C(=O)O)c(C)n1Cc1ccc(F)cc1Cl | . | . | -0.7 | -4.0 | 1.1% | .
Cc1cc2nc(-c3cccnc3SCC(=O)NC(C)C)[nH]c2cc1C | 1.6 | ? | 0.2 | -13.5 | 3.9% | -4.5%
O=[N+]([O-])c1cnn(-c2nc(-c3ccccc3)cc(C(F)(F)F)n2)c1 | -2.9 | 29.7%[15.4 µM] | -0.6 | 5.7 | . | -0.2%
Cc1sc(NC(=O)c2ccco2)c(CN2CCN(c3ccccc3)CC2)c1C | -2.7 | 1.0% | 1.4 | 5.1 | ? | -5.4%
COc1cc(/C=C2/SC(=S)N(CC(=O)NNC(=O)c3ccc(F)cc3)C2=O)cc(OC)c1OC | . | -20.3% | -0.7 | 10.4 | -2.8% | .
CCCn1nnnc1NCc1ccc(OC)cc1OC | 1.8 | -2.9% | -0.3 | 3.6 | . | 5.4%
COc1ccc(N2CCN(C(=O)c3cccn4c(=O)c5ccccc5nc34)CC2)cc1 | 0.1 | -5.1%[15.4 µM] | 0.2 | -1.4 | 1.7% | 2.5%
O=C(CNC(=O)c1ccco1)N/N=C/c1ccccc1[N+](=O)[O-] | 0.9 | 0.3% | 1.5 | -19.0 | 0.2% | 10.0%
CCN(C(=O)c1cc2c(=O)n(CC)c3ccccc3c2s1)c1cccc(C(F)(F)F)c1 | . | . | 0.1 | -2.0 | 57.6% | .
COc1cccc(C(c2nnnn2Cc2ccc(F)cc2)N2CCC(C(N)=O)CC2)c1OC (configuration not stated) | 0.2 | 15.0% | 0.5 | 1.3 | -2.2% | -6.3%
O=C(Nc1cccc2ccccc12)c1ccc(F)cc1 | 0.4 | 30.8% | 0.5 | -10.2 | -1.2% | 0.1%
CN(C)S(=O)(=O)c1ccc(Cl)c(NC(=O)COC(=O)CC(NC(N)=O)c2ccc(Cl)cc2)c1 (configuration not stated) | 4.9 | -50.2%[inhibitor] | . | . | -2.2% | -5.7%
O=C1CCCc2[nH]c3cccc(/C(=C/c4ccccc4)c4ccccc4)c3c21 | 0.8 | -8.6% | 0.7 | 24.2 | ? | -18.7%
CCOC(=O)c1ccc(CNC(=O)C2CCCCC2C(=O)OCC(F)(F)F)o1 (configuration not stated) | 7.4 | -4.1% | -1.1 | -6.4 | 0.3% | 8.7%
CCOC(=O)c1c(C)[nH]c(C(=O)COC(=O)COc2ccc(OC)cc2)c1C | 5.6 | 9.6% | 0.2 | -8.9 | 0.6% | 7.5%
CCOc1ccc([C@@H]2CC=C(C(=O)O)[C@H](c3ccc(F)cc3)N2S(=O)(=O)c2ccc(C)cc2)cc1 | . | 25.4% | -0.5 | 6.1 | -0.6% | -7.4%
CSCCC(NC(=O)/C(=C/c1ccco1)NC(=O)c1ccc(Br)o1)C(=O)O (configuration not stated) | 4.0 | -1.5% | 0.2 | -10.5 | 0.2% | 10.9%
COC(=O)Nc1ccc(S(=O)(=O)N2CCN(CCN3C(=O)C4C5C=CC(C5)C4C3=O)CC2)cc1 (configuration not stated) | 2.3 | -27.3% | -1.1 | 10.0 | -2.2% | -4.7%
CCN(CC)c1ccc(/C=N\NC(=O)c2cccc3cc[nH]c23)cc1 | 5.6 | -3.6%[15.4 µM] | 0.1 | -17.7 | -1.4% | 9.4%
